A1 apoptosis 2: blocks A1, raising caspase activity; MEF A1-2A-BIM cells, caspase-Glo luminescence, 3 h; percent of clofoctol response, DMSO zero; caspase activation, % (concentration not given with the values); AID 2465; 24,000 tested, under 10 active; in the data active means caspase activation above about 5.9%; inconclusive means no clear call, values can overlap the other calls; inactive means below about 2.2%;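 further: wells of about 30 µL received 50 nL stock; the first replicate is given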
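Evaluation: Caspase-3/7 activity from luminescence increase | Assay system: A1-2A-BIM mouse embryonic fibroblasts | Quantity: 2500 MEF cells/well | Medium: RPMI-1640 plus 10% FBS | Detection: Caspase-Glo 3/7 luminescence, 1 h at room temperature | Dosing: 50 nL compound per well, pinned | Timing: Cells settled overnight, compound exposure 3 h at 37 °C, 5% CO2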
Starred values were filed as active, the others as inactive; u = inconclusive. Some of the compounds tested. The share of hits here may be higher or lower than overall.

No.	Structure	A1 apoptosis 2
1	C[C@H]1CN([C@@H](C)CO)C(=O)Cc2cc(NC(=O)Nc3cccc4ccccc34)ccc2O[C@H]1CN(C)C(=O)Nc1cccc2ccccc12	1.4
2	C=CCNC(=O)[C@@H]1[C@H]2C(=O)O[C@H](c3ccccc3)[C@H](c3ccccc3)N2[C@H](c2ccccc2OCCO)[C@@]12C(=O)N(C(=O)OCCOC)c1ccc(C#Cc3ccc(OC)cc3)cc12	1.8
3	COc1ccc(S(=O)(=O)Nc2ccc3c(c2)C(=O)N([C@H](C)CO)C[C@H](C)[C@H](CN(C)S(=O)(=O)c2ccccc2)OCCCC[C@H](C)O3)cc1	-0.5
4	CC(C)NC(=O)Nc1ccc2c(c1)C(=O)N([C@@H](C)CO)C[C@H](C)[C@@H](CN(C)C(=O)Nc1ccc(F)cc1)OCCCC[C@H](C)O2	0.6
5	C[C@@H]1CN([C@H](C)CO)C(=O)c2cccc(NC(=O)c3cnccn3)c2O[C@H]1CN(C)Cc1ccncc1	2.3
6	COc1ccc(S(=O)(=O)Nc2ccc3c(c2)CC(=O)N([C@@H](C)CO)C[C@@H](C)[C@H](CN(C)S(=O)(=O)c2ccc(C)cc2)O3)cc1	-0.2
7	C[C@@H]1CN([C@H](C)CO)C(=O)c2cc(NC(=O)c3ccccc3)ccc2O[C@@H](C)CCCCO[C@H]1CN(C)C(=O)c1ccncc1	0.5
8	Cc1noc(C)c1S(=O)(=O)Nc1ccc2c(c1)C(=O)N([C@@H](C)CO)C[C@@H](C)[C@@H](CN(C)Cc1ccncc1)OCCCC[C@@H](C)O2	0.0
9	CNC[C@@H]1Oc2c(NS(=O)(=O)c3cccs3)cccc2C(=O)N([C@H](C)CO)C[C@@H]1C	-0.3
10	C[C@@H]1CN([C@H](C)CO)C(=O)Cc2cc(NC(=O)CCCCCC(=O)Nc3ccccc3N)ccc2O[C@@H]1CN(C)C(=O)Nc1ccc(F)cc1	-1.7
11	C[C@@H]1CN([C@H](C)CO)C(=O)c2cccc(NS(C)(=O)=O)c2O[C@@H]1CN(C)Cc1ccccc1	2.3
12	C[C@@H]1CN([C@@H](C)CO)C(=O)Cc2cc(NS(=O)(=O)c3cn(C)cn3)ccc2O[C@@H]1CN(C)CC1CCCCC1	-1.5
13	COc1ccc(S(=O)(=O)Nc2ccc3c(c2)C(=O)N([C@@H](C)CO)C[C@H](C)[C@H](CN(C)S(=O)(=O)c2ccc(OC)cc2)O3)cc1	-1.3
14	C[C@@H]1CN([C@@H](C)CO)C(=O)c2cccc(NC(=O)Nc3ccc(C(F)(F)F)cc3)c2O[C@@H]1CN(C)C(=O)NC1CCCCC1	-0.7
15	C[C@@H]1CCCCO[C@H](CN(C)Cc2ccccc2)[C@H](C)CN([C@@H](C)CO)C(=O)c2cc(NS(=O)(=O)c3cn(C)cn3)ccc2O1	-0.3
16	COc1ccc(NC(=O)Nc2ccc3c(c2)C(=O)N([C@H](C)CO)C[C@@H](C)[C@H](CN(C)S(=O)(=O)c2ccc(OC)cc2)O3)cc1	0.0
17	C[C@@H]1CN([C@H](C)CO)C(=O)Cc2cc(NC(=O)Nc3ccc4c(c3)OCO4)ccc2O[C@H]1CN(C)Cc1ccccc1	-1.3
18	C[C@H]1CN([C@@H](C)CO)C(=O)c2cccc(NS(=O)(=O)c3ccc(Cl)cc3)c2O[C@H]1CN(C)S(=O)(=O)c1ccc(Cl)cc1	-1.2
19	CNC[C@@H]1OCCCC[C@@H](C)Oc2ccc(NC(=O)Nc3ccccc3)cc2C(=O)N([C@H](C)CO)C[C@@H]1C	0.7
20	C[C@@H]1CN([C@@H](C)CO)C(=O)c2cccc(NS(=O)(=O)c3ccc(F)cc3)c2O[C@@H]1CN(C)Cc1ccc(-c2ccccc2)cc1	0.0
21	COc1ccc(S(=O)(=O)N(C)C[C@H]2OCCCC[C@H](C)Oc3ccc(NC(=O)Nc4ccc5c(c4)OCO5)cc3C(=O)N([C@H](C)CO)C[C@@H]2C)cc1	1.2
22	C[C@H](CO)N1C[C@H](C)[C@@H](CN(C)CC2CC2)Oc2ccc(NS(=O)(=O)c3ccc(F)cc3)cc2CC1=O	-0.7
23	CC(C)NC(=O)N(C)C[C@H]1OCc2cn(nn2)CCCC(=O)N([C@@H](C)CO)C[C@@H]1C	2.1
24	Cc1noc(C)c1S(=O)(=O)Nc1ccc2c(c1)C(=O)N([C@@H](C)CO)C[C@@H](C)[C@@H](CN(C)C)OCCCC[C@@H](C)O2	-0.3
25	C[C@@H]1CN([C@@H](C)CO)C(=O)c2cccc(NC(=O)C3CC3)c2O[C@H]1CN(C)Cc1ccc(C(=O)O)cc1	0.3
26	COc1ccc(NC(=O)N(C)C[C@H]2Oc3c(NS(=O)(=O)c4ccc(C)cc4)cccc3C(=O)N([C@@H](C)CO)C[C@@H]2C)cc1	-0.7
27	Cc1ccc(S(=O)(=O)N(C)C[C@H]2Oc3ccc(NC(=O)Nc4ccccc4)cc3CC(=O)N([C@@H](C)CO)C[C@@H]2C)cc1	-0.2
28	CNC[C@@H]1OCCCC[C@@H](C)Oc2ccc(N(C)C)cc2C(=O)N([C@H](C)CO)C[C@H]1C	0.1
29	C[C@H]1CN([C@@H](C)CO)C(=O)CCCn2cc(nn2)CO[C@H]1CN(C)S(=O)(=O)c1ccc(Cl)cc1	1.2
30	C[C@H]1CN([C@@H](C)CO)C(=O)c2cccc(NC(=O)c3ccc(-c4nccs4)cc3)c2O[C@@H]1CN(C)Cc1ccc2c(c1)OCO2	0.2

(further entries)
No.	Structure	A1 apoptosis 2
31	C[C@@H]1CN([C@@H](C)CO)C(=O)c2cc(NS(=O)(=O)c3ccc(F)cc3)ccc2O[C@@H]1CN(C)CC1CC1	0.8
32	COc1cccc(S(=O)(=O)N(C)C[C@@H]2OCc3cn(nn3)CCCC(=O)N([C@H](C)CO)C[C@H]2C)c1	0.9
33	C[C@@H]1CCCCO[C@H](CN(C)C)[C@@H](C)CN([C@H](C)CO)C(=O)c2cc(N(C)C)ccc2O1	0.1
34	Cc1ccc(S(=O)(=O)Nc2ccc3c(c2)C(=O)N([C@H](C)CO)C[C@@H](C)[C@H](CN(C)C(=O)Nc2ccc(F)cc2)OCCCC[C@H](C)O3)cc1	-0.6
35	O=C(CCCCCCC(=O)Nc1ccccc1O)N/N=C/c1ccc(OCc2ccccc2)cc1O	-1.7
36	C[C@H](CO)N1C[C@H](C)[C@H](CN(C)S(=O)(=O)c2cn(C)cn2)Oc2ccc(NS(=O)(=O)c3cn(C)cn3)cc2CC1=O	-0.8
37	C[C@@H]1CN([C@H](C)CO)C(=O)c2cc(N(C)C)ccc2O[C@@H]1CN(C)Cc1ccccc1	-0.1
38	O=C1O[C@H](c2ccccc2)[C@H](c2ccccc2)N2[C@H]1[C@@H](C(=O)N1CCN(c3ncccn3)CC1)[C@]1(C(=O)Nc3ccc(C#CCCO)cc31)[C@H]2c1ccccc1OCCO	-0.4
39	C[C@H](CO)N1C[C@H](C)[C@H](CN(C)C(=O)Cc2ccccc2)OCCCC[C@H](C)Oc2ccc(NC(=O)Nc3ccc4c(c3)OCO4)cc2C1=O	0.2
40	C[C@@H]1CN([C@@H](C)CO)C(=O)c2cccc(NC(=O)C3CC3)c2O[C@H]1CN(C)S(=O)(=O)c1ccc(Cl)cc1	-0.3
41	NC(N)=NCCCC(N)C(=O)CC(Cc1ccccc1)C(=O)O (stereo not drawn)	-0.2
42	O=c1n(-c2ccccc2)c(=O)n2n1CC(COc1ccccc1)=C([C@H](O)c1ccccc1)[C@@H]2CO	0.3
43	C[C@@H]1CCCCO[C@@H](CN(C)C)[C@H](C)CN([C@@H](C)CO)C(=O)c2cc(N(C)C)ccc2O1	0.0
44	C[C@@H]1CN([C@@H](C)CO)C(=O)c2cc(NC(=O)CCN3CCOCC3)ccc2O[C@H]1CN(C)C	0.7
45	Cc1ccccc1CN(C)C[C@@H]1OCc2cn(nn2)CCCC(=O)N([C@H](C)CO)C[C@@H]1C	-0.7
46	COC(=O)CCCCCCC(=O)N/N=C/c1ccncc1Br	0.7
47	COc1ccc(S(=O)(=O)Nc2ccc3c(c2)C(=O)N([C@@H](C)CO)C[C@H](C)[C@H](CN(C)S(=O)(=O)c2ccccc2)O3)cc1	-0.5
48	C[C@@H]1CN([C@@H](C)CO)C(=O)c2cccc(NS(C)(=O)=O)c2O[C@@H]1CN(C)Cc1ccncc1	0.2
49	C[C@@H]1CCCCO[C@H](CN(C)C(=O)CCC(F)(F)F)[C@@H](C)CN([C@@H](C)CO)C(=O)c2cc(NC(=O)CCC(F)(F)F)ccc2O1	0.4
50	C[C@@H]1CCCCO[C@@H](CN(C)C(=O)Nc2ccc(C(F)(F)F)cc2)[C@@H](C)CN([C@H](C)CO)C(=O)c2cc(NC(=O)CCCCCC(=O)Nc3ccccc3N)ccc2O1	0.6
51	CCCN(C)C[C@H]1OCCCC[C@@H](C)Oc2ccc(NC(=O)Nc3ccccc3)cc2C(=O)N([C@H](C)CO)C[C@@H]1C	-0.5
52	CC(C)NC(=O)N(C)C[C@H]1Oc2ccc(NC(=O)CCN3CCOCC3)cc2C(=O)N([C@H](C)CO)C[C@H]1C	-0.4
53	C[C@@H]1CCCCO[C@@H](CN(C)C(=O)c2ccccc2)[C@H](C)CN([C@@H](C)CO)C(=O)c2cc(NC(=O)Nc3ccc4c(c3)OCO4)ccc2O1	0.4
54	COC(=O)CCCCCCC(=O)NN=C1CCCCCCC1	0.8
55	C[C@H](CO)N1C[C@H](C)[C@H](CN(C)C)Oc2ccc(NC(=O)Cc3ccccc3)cc2CC1=O	-0.1
56	Cc1noc(C)c1S(=O)(=O)Nc1ccc2c(c1)C(=O)N([C@H](C)CO)C[C@@H](C)[C@H](CN(C)Cc1ccc3c(c1)OCO3)OCCCC[C@H](C)O2	-1.1
57	COc1ccc(CN(C)C[C@H]2Oc3ccc(NS(=O)(=O)c4ccccc4)cc3C(=O)N([C@H](C)CO)C[C@@H]2C)cc1	-0.5
58	COc1ccc(NC(=O)N(C)C[C@H]2Oc3ccc(NS(=O)(=O)c4ccc(C)cc4)cc3C(=O)N([C@@H](C)CO)C[C@H]2C)cc1	-1.0
59	C[C@H](CO)N1C[C@H](C)[C@@H](CN(C)S(=O)(=O)c2ccc(F)cc2)OCCCC[C@H](C)Oc2ccc(NC(=O)c3ccncc3)cc2C1=O	-1.7
60	Cc1ccc(S(=O)(=O)N(C)C[C@H]2Oc3ccc(NC(=O)CCCCCC(=O)Nc4ccccc4N)cc3C(=O)N([C@H](C)CO)C[C@@H]2C)cc1	u

Four entries picked at random from the list so far:
No.	Structure	A1 apoptosis 2
37	C[C@@H]1CN([C@H](C)CO)C(=O)c2cc(N(C)C)ccc2O[C@@H]1CN(C)Cc1ccccc1	-0.1
24	Cc1noc(C)c1S(=O)(=O)Nc1ccc2c(c1)C(=O)N([C@@H](C)CO)C[C@@H](C)[C@@H](CN(C)C)OCCCC[C@@H](C)O2	-0.3
5	C[C@@H]1CN([C@H](C)CO)C(=O)c2cccc(NC(=O)c3cnccn3)c2O[C@H]1CN(C)Cc1ccncc1	2.3
4	CC(C)NC(=O)Nc1ccc2c(c1)C(=O)N([C@@H](C)CO)C[C@H](C)[C@@H](CN(C)C(=O)Nc1ccc(F)cc1)OCCCC[C@H](C)O2	0.6

A different layout for part of the listing above:
[36] C[C@H](CO)N1C[C@H](C)[C@H](CN(C)S(=O)(=O)c2cn(C)cn2)Oc2ccc(NS(=O)(=O)c3cn(C)cn3)cc2CC1=O
  A1 apoptosis 2 = -0.8
[37] C[C@@H]1CN([C@H](C)CO)C(=O)c2cc(N(C)C)ccc2O[C@@H]1CN(C)Cc1ccccc1
  A1 apoptosis 2 = -0.1

Remaining list, next part:
No.	Structure	A1 apoptosis 2
61	C[C@@H]1CN([C@H](C)CO)C(=O)c2cccc(NC(=O)c3ccncc3)c2O[C@@H]1CN(C)CC1CCCCC1	0.4
62	C[C@H]1CN([C@@H](C)CO)C(=O)Cc2cc(NS(=O)(=O)c3ccc(Cl)cc3)ccc2O[C@H]1CN(C)Cc1ccc(C(=O)Nc2ccccc2N)cc1	0.6
63	C[C@H](CO)N1C[C@H](C)[C@@H](CN(C)C(=O)Nc2ccc(C(F)(F)F)cc2)Oc2ccc(NS(C)(=O)=O)cc2CC1=O	-0.4
64	C[C@@H]1CN([C@H](C)CO)C(=O)Cc2cc(NC(=O)CCCCCC(=O)Nc3ccccc3N)ccc2O[C@H]1CN(C)Cc1ccccc1	-0.9
65	C[C@H]1CCCCO[C@H](CN(C)S(=O)(=O)c2cccs2)[C@@H](C)CN([C@@H](C)CO)C(=O)c2cc(NC(=O)Nc3ccccc3)ccc2O1	0.9
66	COc1ccc(NC(=O)Nc2cccc3c2O[C@@H](CN(C)Cc2ccc4c(c2)OCO4)[C@H](C)CN([C@@H](C)CO)C3=O)cc1	-0.9
67	CC(C)NC(=O)Nc1ccc2c(c1)C(=O)N([C@@H](C)CO)C[C@@H](C)[C@H](CN(C)C)OCCCC[C@@H](C)O2	-0.5
68	C[C@@H]1CN([C@H](C)CO)C(=O)c2cccc(NC(=O)C3CCOCC3)c2O[C@@H]1CN(C)Cc1ccc(C(F)(F)F)cc1	0.3
69	COc1ccc(S(=O)(=O)N(C)C[C@H]2OCCCC[C@@H](C)Oc3ccc(N(C)C)cc3C(=O)N([C@H](C)CO)C[C@H]2C)cc1	0.4
70	C[C@@H]1CCCCO[C@H](CN(C)C(=O)CCCN(C)C)[C@@H](C)CN([C@@H](C)CO)C(=O)c2cc(NC(=O)CCCN(C)C)ccc2O1	-0.7
71	C[C@@H]1CCCCO[C@H](CN(C)Cc2ccc(Cl)c(Cl)c2)[C@H](C)CN([C@@H](C)CO)C(=O)c2cc(NC(=O)Nc3ccc(F)cc3)ccc2O1	-1.7

Taken from above:
`C[C@@H]1CN([C@H](C)CO)C(=O)c2cccc(NC(=O)c3ccncc3)c2O[C@@H]1CN(C)CC1CCCCC1` – A1 apoptosis 2 = 0.4
`COc1ccc(NC(=O)Nc2cccc3c2O[C@@H](CN(C)Cc2ccc4c(c2)OCO4)[C@H](C)CN([C@@H](C)CO)C3=O)cc1` – A1 apoptosis 2 = -0.9
